Source: PubChem
TSHR ag – activates the human thyroid stimulating hormone receptor | 0.48% of 73,000 active | Potency, µM (titrated, usually from 57.1 µM), for inactives: top-dose activation, usual class: activators | AID 926 | HEK293-CNG-TSHR cells (CNG channel as cAMP sensor), membrane potential dye, cAMP; active = well fitted activation curve of enough size with the parental cells flat; inconclusive = any curve in the parental cells; inactive = parental cells flat and receptor cells flat or falling; also: potency is read from the fitted curve at half-maximal effect; % of control where 0% means no effect; weak receptor curves with flat parental cells got no call and are not listed
Target sequence (P16473 whole entry, looked up): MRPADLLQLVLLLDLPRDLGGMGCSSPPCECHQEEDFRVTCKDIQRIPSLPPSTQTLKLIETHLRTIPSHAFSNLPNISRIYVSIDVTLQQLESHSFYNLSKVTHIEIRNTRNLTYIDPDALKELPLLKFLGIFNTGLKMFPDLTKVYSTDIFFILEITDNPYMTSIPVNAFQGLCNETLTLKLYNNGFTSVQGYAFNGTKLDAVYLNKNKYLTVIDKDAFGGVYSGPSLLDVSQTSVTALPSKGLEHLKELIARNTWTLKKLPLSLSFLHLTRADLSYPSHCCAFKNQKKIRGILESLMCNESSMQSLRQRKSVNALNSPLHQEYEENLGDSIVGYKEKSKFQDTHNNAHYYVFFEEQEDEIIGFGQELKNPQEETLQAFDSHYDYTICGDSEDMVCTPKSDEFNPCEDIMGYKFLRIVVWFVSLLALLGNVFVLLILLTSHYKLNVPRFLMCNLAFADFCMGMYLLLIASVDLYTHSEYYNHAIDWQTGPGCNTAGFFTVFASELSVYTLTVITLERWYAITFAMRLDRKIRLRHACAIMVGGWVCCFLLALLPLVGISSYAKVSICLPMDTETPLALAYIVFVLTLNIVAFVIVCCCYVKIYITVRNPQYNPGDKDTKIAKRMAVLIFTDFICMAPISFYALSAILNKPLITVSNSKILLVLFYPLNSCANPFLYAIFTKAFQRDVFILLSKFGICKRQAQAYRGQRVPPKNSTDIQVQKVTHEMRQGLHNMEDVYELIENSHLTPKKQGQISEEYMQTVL
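HEK 293 cells stably expressing TSHR and a modified CNG channel, with CNG-only parental cells as counterscreen, were preloaded 60 min at room temperature with membrane potential dye containing 100 uM RO 20-1724. Compound exposure was 30 min, and depolarization was read as fluorescence at 590 nm.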
A488 autofl – compound fluoresces in the A488 spectral region. compound autofluorescence, A488 spectral region, dye equivalency; hits give high values. 0.1% of 59,000 active. max dye equivalency, M; active = above 10 nM dye equivalent; inconclusive = 1 to 10 nM; inactive = 1 nM or less; about half of its hits are not listed in these tables;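 also: highest value over a series up to 38 µM; compound alone in buffer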
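Autofluorescence read at ex 480/em 540 nm after 15 min RT in 100 mM Tris pH 8.0; compound signal normalized to A488 standard series on each plate, reported as dye-equivalent concentration at each test concentration.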
Resorufin autofl – resorufin region autofluorescence | Compound fluorescence, resorufin region 547/598 nm, buffer; hits give high values | max dye-equivalent concentration, M | 0.04% of 59,000 active; active = above 10 nM dye equivalent; inconclusive = 1 to 10 nM; inactive = 1 nM or less; a few of its hits are not listed in these tables; also: highest value over a series up to 38 µM
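Read-out: intrinsic compound fluorescence at ex 547/em 598 nm after 15 min at RT in pH 8.0 Tris (100 mM). Values expressed as resorufin-equivalent concentration from per-plate standard series.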
AID923 – qHTS Assay for Allosteric/Competitive Inhibitors of Caspase-1: Spectroscopic Profiling in AFC Spectral Region; compound fluorescence, AFC spectral region (405/520 nm); almost no hit is shown here; 1.1% of 75,000 active; AID 923, 2007; Potency, µM (titrated, usually from 57.5 µM), inactives show at the highest dose fluorescence increase, most hits filed as activators; active = well fitted activation curve with a large enough effect; inconclusive = small, poorly fitted or top-dose-only effect;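 also: potency is read from the fitted curve at half-maximal effect; 0% is about no effect; scaled to a free AFC standard on each plate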
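Compound autofluorescence profiled at 405 nm ex/520 nm em during kinetic caspase 1 run (50 nM enzyme, 5 uM Ac-WEHD-AFC, HEPES pH 7.5, 10 mM DTT). Titration up to 57 uM; baseline from regression intercept, normalized to AFC standard curve.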
A647 autofl – compound autofluorescence in A647 spectral region; Compound fluorescence, A647 channel (570/671 nm), Tris buffer; max dye-equivalent concentration, M; 59,000 tested, under 10 active; AID 592; active means above 1 µM dye equivalent; inconclusive means 0.1 to 1 µM; inactive means 0.1 µM or less;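 also: values scaled relative to a standard on each plate; highest value over a series up to 38 µM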
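Compound fluorescence was measured in 100 mM Tris buffer, pH 8.0, after 15 min at room temperature, using 570 nm excitation and 671 nm emission filters. Signal was normalized to a per-plate Alexa 647 standard curve and expressed as dye-equivalent concentration at each compound concentration.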
* = called active by the depositor; & = joins results of further samples; [ ] = remark or other dose. An excerpt; rates above refer to the full screens.

CCOC(=O)CSc1nnc(C)n1N was read as TSHR ag -2%, A488 autofl inactive, Resorufin autofl inactive, AID923 1.1% and A647 autofl 5.4e-08.
`O=S(=O)(c1ccc2c(c1)OCCCO2)N1CCNCC1` gave TSHR ag 2%, A488 autofl inactive, Resorufin autofl inactive, AID923 -2.1% and A647 autofl 5.2e-09.
CCC(=O)Nc1nc2c(OC)ccc(OC)c2s1 was read as TSHR ag 13% and AID923 -3.6%.
CC1=NCCN1S(=O)(=O)c1ccc(Br)c(C)c1 was read as TSHR ag 2%, A488 autofl inactive, Resorufin autofl inactive, AID923 0.7% and A647 autofl 2.9e-08.
For CC1CCCCC1NC(=O)c1ccc2c(c1)[nH]c(=O)n2C1CCCC1 (centres undefined) the results were TSHR ag 7%, A488 autofl inactive, Resorufin autofl inactive, AID923 0.1% and A647 autofl 1e-09.
CCOC(=O)c1cc(-c2ccc(N)cc2)sc1N was read as TSHR ag -8%, A488 autofl inactive, Resorufin autofl inactive, AID923 0.0% and A647 autofl 1e-09.
For O=C(CSc1nnc(CNc2ccccc2)o1)c1ccc2c(c1)OCCO2 the results were TSHR ag 5%, A488 autofl inactive, Resorufin autofl inactive, AID923 -0.1% and A647 autofl 1e-09.
Screening CC(NS(C)(=O)=O)C(c1cccs1)N1CCN(c2ccccc2)CC1 (centres undefined) returned TSHR ag 4%, A488 autofl inactive, Resorufin autofl inactive, AID923 -3.4% and A647 autofl 1.9e-09.
`Cc1ccc(Nc2nc3nonc3[nH]c2=O)cc1` gave TSHR ag 5%, A488 autofl inactive, Resorufin autofl inactive, AID923 -2.9% and A647 autofl 1.2e-08.
Screening Nc1nc(SCc2ccc3c(c2)OCO3)n[nH]1 returned TSHR ag -2%, A488 autofl inactive, Resorufin autofl inactive, AID923 -2.9% and A647 autofl 1e-09.

Part of the list above in order of number of heavy atoms, ascending.
CC1=NCCN1S(=O)(=O)c1ccc(Br)c(C)c1 was read as TSHR ag 2%, A488 autofl inactive, Resorufin autofl inactive, AID923 0.7% and A647 autofl 2.9e-08.
`Cc1ccc(Nc2nc3nonc3[nH]c2=O)cc1` gave TSHR ag 5%, A488 autofl inactive, Resorufin autofl inactive, AID923 -2.9% and A647 autofl 1.2e-08.
For CC1CCCCC1NC(=O)c1ccc2c(c1)[nH]c(=O)n2C1CCCC1 (centres undefined) the results were TSHR ag 7%, A488 autofl inactive, Resorufin autofl inactive, AID923 0.1% and A647 autofl 1e-09.

(list continues)
For CCN1CCN(c2nc3c(c(=O)n(C)c(=O)n3C)n2CCSc2nccc(C)n2)CC1 the results were TSHR ag 1%, A488 autofl inactive, Resorufin autofl inactive, AID923 -1.1% and A647 autofl 2.9e-08.
O=C(O)CCn1[nH]c(=O)ccc1=O was read as TSHR ag 6%, A488 autofl inactive, Resorufin autofl inactive, AID923 -0.9% and A647 autofl 2.6e-09.
CCc1ccc2[nH]c(=O)c(C(c3nnnn3CC3CCCO3)N3CCCc4ccccc43)cc2c1 (centres undefined) was read as TSHR ag 3%, A488 autofl inactive, Resorufin autofl inactive, AID923 1.9% and A647 autofl 3.4e-09.
For CCn1ncc(Br)c1C(=O)Nc1ccc(F)cc1F the results were TSHR ag inconclusive, A488 autofl inactive, Resorufin autofl inactive, AID923 -0.4% and A647 autofl 7.3e-09.
`c1ccc(-n2nnnc2Sc2n[nH]c(-c3ccncc3)n2)cc1` gave TSHR ag 1%, A488 autofl inactive, Resorufin autofl inactive, AID923 -1.9% and A647 autofl 4.8e-09.
C=CCN=C1SCC(=O)N1S(=O)(=O)c1ccccc1 was read as TSHR ag -13%, A488 autofl inactive, Resorufin autofl inactive, AID923 0.6% and A647 autofl 1e-09.
Screening C[N+]1(CCNC(=O)/C=N/O)CCCCC1 returned A488 autofl inactive, Resorufin autofl inactive and A647 autofl 1e-09.
Cc1ccc(CNC(=O)CS(=O)Cc2nc(-c3ccccc3C)oc2C)cc1 (centres undefined) was read as TSHR ag inconclusive and AID923 -0.4%.
Screening COc1ccc(NC(=O)CSc2ccccn2)cc1OC returned TSHR ag 3%, A488 autofl inactive, Resorufin autofl inactive, AID923 -1.3% and A647 autofl 1e-09.
Screening COc1ccccc1CN1C(=O)CCC1(C)C(=O)NC1CCCCCC1 (centres undefined) returned TSHR ag 6%[11.4 µM], A488 autofl inactive, Resorufin autofl inactive, AID923 -1.1% and A647 autofl 3.9e-08.
Cc1cc(C)nc(Sc2c(F)c(F)c(C(F)(F)F)c(F)c2F)n1 was read as TSHR ag 0% and AID923 0.2%.
For C=C(C)Cn1c(N2CCC(Cc3ccccc3)CC2)nc2c1c(=O)[nH]c(=O)n2C the results were TSHR ag 5%, A488 autofl inactive, Resorufin autofl inactive, AID923 1.4% and A647 autofl 2e-08.
COc1ccc(N2CC(C(=O)Nc3ccc4c(c3)OCO4)CC2=O)cc1 (centres undefined) was read as TSHR ag 5%, A488 autofl inactive, Resorufin autofl inactive, AID923 0.5% and A647 autofl 1.7e-08.
`OC(COc1ccccc1)CSc1ncn[nH]1` (centres undefined) gave TSHR ag -13%, A488 autofl inactive, Resorufin autofl inactive, AID923 4.0% and A647 autofl 1e-09.
C=C(C)C(O)/C=C/c1ccc(OC)cc1 (centres undefined) was read as TSHR ag 3%[11.4 µM] and AID923 -4.1%[11.5 µM].
For Cn1nnnc1SCCNCc1cccc2ccccc12 the results were TSHR ag 27%, A488 autofl inactive, Resorufin autofl inactive, AID923 -0.7% and A647 autofl 2.9e-08.
CCOC(=O)C1CCCc2c1[nH]c1c(C(=O)O)cccc21 (centres undefined) was read as TSHR ag 12%[11.4 µM] and AID923 4.5%.
`CCN(CC(=O)NCc1cccs1)C(=O)c1cc(S(=O)(=O)N2CCOCC2)ccc1C` gave TSHR ag -1%[11.4 µM], A488 autofl inactive, Resorufin autofl inactive, AID923 -1.4% and A647 autofl 2.5e-09.
CCOC(=O)C1CN(S(=O)(=O)c2ccc(C)cc2)CCN1S(=O)(=O)c1ccc(C)cc1 (centres undefined) was read as TSHR ag 4%, A488 autofl inactive, Resorufin autofl inactive, AID923 0.2% and A647 autofl 1e-09.
Screening O=C1COc2ccccc2N1Cc1ccccc1Cl returned TSHR ag inconclusive, A488 autofl inactive, Resorufin autofl inactive, AID923 0.8% and A647 autofl 5.3e-08.
For OB(O)c1ccc(B(O)O)cc1 the results were TSHR ag 0% and AID923 0.5%.
`CCCOc1ccc(N2CC(C(=O)Nc3ccccn3)CC2=O)cc1` (centres undefined) gave TSHR ag -3%, A488 autofl inactive, Resorufin autofl inactive, AID923 0.7% and A647 autofl 7.6e-09.
Cc1c2c(nc3ccccc13)-c1cccc(=O)n1C2 was read as TSHR ag 8% and AID923 0.9%.
Cc1noc(C)c1C(=O)N1CCC2(CCCN(C(=O)NC(C)C)C2)CC1 was read as TSHR ag 3%, A488 autofl inactive, Resorufin autofl inactive, AID923 2.0% and A647 autofl 3.3e-08.
For O=C(N=c1nc2ccccn2s1)c1ccccc1 the results were TSHR ag -2%[11.4 µM], A488 autofl inactive, Resorufin autofl inactive, AID923 -1.3% and A647 autofl 5.8e-09.
Screening COC(=O)[C@@]1(Cc2ccc(OC)cc2)[C@H]2c3cc(C(=O)N(C)C)n(Cc4cccc5ccccc45)c3C[C@H]2CN1C(=O)c1ccccc1 returned TSHR ag inconclusive and AID923 1.8%.
`CCOC(=O)c1ccc(N2C(=O)CC(Sc3nc(O)c(CC)c(=O)[nH]3)C2=O)cc1` (centres undefined) gave TSHR ag -16%, A488 autofl inactive, Resorufin autofl inactive, AID923 1.5% and A647 autofl 3.1e-09.
For CCOC(=O)C1=C(C)N(c2nonc2NC(C)=O)C(N)=C(C#N)C1c1ccccc1F (centres undefined) the results were TSHR ag -2%, A488 autofl inactive, Resorufin autofl inactive, AID923 -0.3% and A647 autofl 7.3e-09.
Screening Cc1ccc(-n2c(CNc3ccc(F)cc3)nnc2SCC(=O)N2CCCC2)cc1 returned TSHR ag -2%, A488 autofl inactive, Resorufin autofl inactive, AID923 2.0% and A647 autofl 1e-09.
For c1ccc(-c2nnc(CN3CCCc4ccccc43)o2)cc1 the results were A488 autofl inactive, Resorufin autofl inactive, AID923 16% and A647 autofl 1e-09.
For Oc1ccc(Cl)cc1CNCC1CCCO1 (centres undefined) the results were TSHR ag 9%, A488 autofl inactive, Resorufin autofl inactive, AID923 -0.1% and A647 autofl 3.4e-08.
For O=NO the results were TSHR ag -4%&0% and AID923 -3.6%&-1.2%.
Cc1ccc(-c2nn(-c3ccccc3)cc2C2SCC(=O)N2Cc2ccccc2)o1 (centres undefined) was read as TSHR ag 25µM* and AID923 3.3%.
Cc1cnc(NC(=O)CSc2nnc(-c3ccc(Cl)cc3Cl)n2N)s1 was read as TSHR ag -19%, A488 autofl inactive, Resorufin autofl inactive, AID923 -3.6% and A647 autofl 1e-09.
Screening NC(=O)c1cnn(Cc2ccc(Cl)cc2)c1N returned TSHR ag inconclusive, A488 autofl inactive, Resorufin autofl inactive, AID923 -0.1% and A647 autofl 1e-09.
CN(C)c1ccc(C(=O)Nc2ccc(S(=O)(=O)NC3=NCCCCC3)cc2)cc1 was read as TSHR ag 0%, A488 autofl inactive, Resorufin autofl inactive, AID923 0.3% and A647 autofl 6e-09.
NC(=O)C1CC=CCC1C(=O)OCC(Cl)=C(Cl)Cl (centres undefined) was read as TSHR ag 2% and AID923 2.3%.
`CC(=O)NCCSCCNC(C)=O` gave TSHR ag inconclusive, A488 autofl inactive, Resorufin autofl inactive, AID923 -2.1% and A647 autofl 1e-09.
Screening Cc1ccc(NS(=O)(=O)c2cccc(C(=O)OCC(=O)NCc3ccco3)c2)cc1 returned TSHR ag 4%, A488 autofl inactive, Resorufin autofl inactive, AID923 0.0% and A647 autofl 7.7e-09.
For CCOC(=O)C1CCCN(C(=O)c2cn(CC)c3ccc(S(=O)(=O)N(C)C)cc3c2=O)C1 (centres undefined) the results were TSHR ag -5% and AID923 2.0%.
Clc1ccc(-c2nnc(SCc3nc(-c4ccccc4)no3)o2)cc1 was read as TSHR ag 21% and AID923 1.8%.
Screening N#Cc1cc2c(nc1SCc1cccnc1)CCC2 returned TSHR ag 15%, A488 autofl inactive, Resorufin autofl inactive, AID923 -2.4% and A647 autofl 2.9e-09.
Screening CCSc1nnc(NC(=O)c2nn(C(C)C)c(=O)c3ccccc23)s1 returned TSHR ag 14%, A488 autofl inactive, Resorufin autofl inactive, AID923 -0.4% and A647 autofl 1e-09.
For CN(C)C(=O)C1CCN(Cc2c[nH]c3ccccc23)CC1 the results were TSHR ag 0%[11.4 µM], A488 autofl inactive, Resorufin autofl inactive, AID923 -2.7%[11.5 µM] and A647 autofl 1.8e-08.
Screening COc1ncc2nc(C)c(=O)n(-c3ccccc3)c2n1 returned TSHR ag 5%, A488 autofl inactive, Resorufin autofl inactive, AID923 -0.2% and A647 autofl 1e-09.
CNC(=O)c1cc2ccccc2o1 was read as A488 autofl inactive, Resorufin autofl inactive and A647 autofl 1.6e-09.
`Cc1cc(C)n(-c2nc(Nc3ccccc3)nc(-n3nc(C)cc3C)n2)n1` gave TSHR ag 19%, A488 autofl inactive, Resorufin autofl inactive, AID923 1.9% and A647 autofl 1e-09.
COC(=O)c1ccc(CN2C(=O)NC3(CCCCC3C)C2=O)o1 (centres undefined) was read as TSHR ag 1%, A488 autofl inactive, Resorufin autofl inactive, AID923 -3.0% and A647 autofl 4e-08.
Screening O=C(CN(Cc1cccs1)C(=O)CN1C(=O)COc2ccccc21)NCc1ccco1 returned TSHR ag inconclusive, A488 autofl inactive, Resorufin autofl inactive, AID923 -0.1% and A647 autofl 1.5e-09.
COc1ccc(-n2c(SCC(=O)Nc3ccc4c(c3)OCO4)nnc2C(C)N2CCCCC2)cc1 (centres undefined) was read as TSHR ag 3%, A488 autofl inactive, Resorufin autofl inactive, AID923 -0.2% and A647 autofl 6.4e-09.
